# Screening data deposited in PubChem BioAssay by National Center for Advancing Translational Sciences (NCATS).
# 2A StopGo: FMDV 2A StopGo reporter, luciferase signal; AID 1159524; Potency, µM (series often up to 57.9 µM), inactives show at the highest dose signal change, negative = less light; 1.2% of 410,000 active; human cells with a luciferase reporter of 2A StopGo recoding; control for the full effect not named in the record; active = well fitted falling curve with a large enough effect; inconclusive = small, poorly fitted or top-dose-only effect; inactive = no such curve, though single readings can be large or run the other way; tested in HEK293T cells; also: % is scaled to controls: 0 for no effect and ±100 for the full control effect; nearly all actives have a fitted effect of over 45% in size; luciferase light after 4 h
# Lassa entry inh: inhibitors of Lassa virus binding or cell entry | 1.2% of 300,000 active | Potency, µM (titrated, usually from 37.9 µM), for the others: at the highest dose activity change, negative = inhibition, most hits filed as inhibitors | Lassa virus pseudotype entry inhibition, cell reporter; control for the full effect not named in the record; active means well fitted inhibition curve with a large enough effect; inconclusive means small, poorly fitted or top-dose-only effect, or effect the other way; inactive means flat fitted curve, though single readings scatter; tested in HEK293 cells; also: % is scaled to controls: 0 for no effect and ±100 for the full control effect; nearly all actives have a fitted effect of over 50% in size; luciferase read-out
# SARS PLpro yeast: inhibitors of SARS-CoV papain-like protease in yeast; S. cerevisiae expressing SARS-CoV PLpro, growth rescue; control for the full effect not named in the record; Potency, µM (series often up to 32.9 µM), for the others: at the highest dose activity, positive = growth rescue; 0.19% of 330,000 active; AID 485353; active means well fitted rising curve with a large enough effect; inconclusive means small, poorly fitted or top-dose-only effect; inactive means no such curve, though single readings can be large or run the other way; also: 0% is about no effect; nearly all actives have a fitted effect of over 55% in size; growth read by luminescence after 48 h
# MARV entry inh: Marburg virus entry inhibition | Marburg virus pseudotyped entry inhibition, cell reporter; control for the full effect not named in the record; about a third of the inactives were read at about 46 µM | Potency, µM (highest dose often 37.8 µM), inactives show at the top dose activity change, negative = inhibition, hits mostly inhibitors | 1.8% of 300,000 active; active = well fitted inhibition curve with a large enough effect; inconclusive = small, poorly fitted or top-dose-only effect, or effect the other way; inactive = flat fitted curve, though single readings scatter; tested in HEK293 cells; about a fifth of its hits are not listed in these tables; also: % is scaled to controls: 0 for no effect and ±100 for the full control effect; luciferase read-out
# RE007 growth inh: less growth of the S. pombe RE007 Vpr strain. AID 651644. S. pombe RE007 Vpr strain, BacTiter-Glo ATP luminescence, 24 h; control for the full effect not named in the record. Potency, µM (titrated, usually from 92.2 µM), for the others: at the highest dose activity change, negative = less growth. 0.21% of 360,000 active; active = well fitted falling curve with a large enough effect; inconclusive = small, poorly fitted or top-dose-only effect; inactive = no such curve, though single readings can be large or run the other way;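 also: % is scaled to controls: 0 for no effect and ±100 for the full control effect; nearly all actives have a fitted effect of over 50% in size; the assay follows cell death caused by Vpr and the record does not say whether a fall means rescue or toxicity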
#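 Fission yeast RE007 carrying one integrated HIV-1 vpr copy, seeded at OD 0.01 in PMG+AL medium with 23 nL pinned compound. Grown 24 h at 30 degrees; viability read by BacTiter-Glo luminescence after 5 min.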
# NS1 function inh: influenza NS1 inhibition; S. cerevisiae slowed by influenza A NS1, growth recovery by OD600; Potency, µM (top dose mostly 46.1 µM), without a hit: top-dose activity, positive = more growth; 0.4% of 270,000 active; AID 2326; active means well fitted rising curve with a large enough effect; inconclusive means small, poorly fitted or top-dose-only effect; inactive means no such curve, though single readings can be large or run the other way; also: nearly all actives have a fitted effect of over 50% in size
#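 A cell-based growth assay was used: compounds that relieve NS1-induced slow growth of budding yeast raise OD600. Assay medium was yeast nitrogen base with ammonium sulphate and -URA supplement, pH 6.0, with 2% galactose.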
# Cruzain noTriton: cruzain (T. cruzi) inhibition without detergent | purified cruzain, Z-FR-AMC fluorescence, no detergent | P25779 | Potency, µM, for the others: max response, negative = inhibition, most hits filed as inhibitors | 2.3% of 200,000 active;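 also: plate controls were enzyme without inhibitor for no effect and buffer without enzyme for full effect; nearly all actives have a fitted effect of over 40% in size; top concentration of the series not given in the record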
# Target sequence (P25779 123-467 limits assumed): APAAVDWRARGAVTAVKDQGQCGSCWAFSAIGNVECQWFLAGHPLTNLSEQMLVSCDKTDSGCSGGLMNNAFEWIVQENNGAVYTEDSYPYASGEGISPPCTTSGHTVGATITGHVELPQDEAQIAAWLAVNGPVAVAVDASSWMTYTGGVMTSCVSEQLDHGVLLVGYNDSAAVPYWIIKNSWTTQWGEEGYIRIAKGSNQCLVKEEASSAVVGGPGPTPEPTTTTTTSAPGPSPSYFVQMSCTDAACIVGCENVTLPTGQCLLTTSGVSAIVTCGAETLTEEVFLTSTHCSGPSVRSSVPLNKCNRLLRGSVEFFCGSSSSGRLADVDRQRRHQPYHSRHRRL
#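 Purified cruzain at 1.5 nM, pre-incubated 15 min with compound at room temperature in 100 mM sodium acetate pH 5.5, 5 mM DTT, 0.00005% Triton X-100. Reaction started with 2 uM Z-FR-AMC; AMC fluorescence increase over 60 s gives rate.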
# Cruzain Triton: cruzain (T. cruzi) inhibition with detergent; 0.43% of 200,000 active; P25779; Potency, µM, for inactives: max response, negative = inhibition, most hits filed as inhibitors; purified cruzain, Z-FR-AMC fluorescence, 0.01% Triton;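 also: plate controls were neutral wells for no effect and buffer without enzyme for full effect; nearly all actives have a fitted effect of over 40% in size; top concentration of the series not given in the record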
#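 Steps: dispense cruzain (1.5 nM final) in acetate buffer pH 5.5 with DTT and 0.01% Triton X-100; pin-transfer compounds; incubate 15 min RT; add Z-FR-AMC (2 uM final); read fluorescence every 30 s, using the 60 s intensity change.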
# * = called active by the depositor; ? = inconclusive; nt = not tested or not shown; & = joins results of further samples; [ ] = dose if it differs, or a comment. Unless noted, calls follow the shape of the dose curve; as a rule, active = well fitted curve in the direction sought with a large enough effect; inconclusive = small, poorly fitted or top-dose-only effect, or another doubt; inactive = no such curve, though single readings can be large; an effect the other way counts as inactive or inconclusive. Potency is read from the fitted curve at half-maximal effect.
# Value order – 2A StopGo, Lassa entry inh, SARS PLpro yeast, MARV entry inh, RE007 growth inh, NS1 function inh, Cruzain noTriton, Cruzain Triton
1	COc1ccc(S(=O)(=O)N2CCCN(CCC(=O)Nc3cccc(C(F)(F)F)c3)CC2)cc1
  ?, ?, -10%, 8%[46.1 µM], 7%, -4%, 14%, 7.7%
2	COc1cc2[nH]c(=O)n(Cc3ccccc3Cl)c(=O)c2cc1OC
  9%, -19%, -2%, -4%, -11%, -2%, ?, 6.1%
3	CCC(C)NC(=S)Nc1ccc(F)cc1 (stereo not drawn)
  -4%, nt, 1%, nt, -7%, 2%, nt, nt
4	COc1nc(Nc2ccc([N+](=O)[O-])cc2)nc(NC2CCCCC2)n1
  -13%, ?, -1%, ?, 2%, nt, nt, nt
5	Cc1nc(N2CCCC2)ncc1C(=O)NCc1ccc(Cl)cc1
  -17%, 11%[46.1 µM], nt, nt, nt, nt, -9%, -3.3%
6	O=C(CSCc1ccc(Br)cc1)Nc1ccccc1C(=O)N1CCOCC1
  -2%, -21%, nt, -3%, 2%, nt, nt, nt
7	CCOC(=O)C1CCN(C(=O)COC(=O)c2nn(C)c(=O)c3ccccc23)CC1
  -22%, 18%, -4%, 7%, 0%, nt, nt, nt
8	CS(=O)(=O)N1CCC(C(=O)NCc2ccc(Cl)cc2)CC1
  -7%, nt, 2%, nt, -11%, -3%, nt, nt
9	CCCCCCCCCCn1c2c(c(=N)c3c1CCC3)CCC2
  18µM*, ?, -43%, ?, ?, -165%, -4%, 0.4%
10	CC(C)(C)OC(=O)N1CCC(c2c(C(=O)N3CCN(C(=O)c4ccco4)CC3)cnn2-c2ccc(Cl)cc2)CC1
  -19%, 6%[46.1 µM], nt, nt, nt, nt, -4%, -0.2%
11	O=C(CSc1nnc(-c2ccco2)o1)Nc1ccccc1Cl
  -14%, nt, 3%, nt, -7%, -16%, nt, nt
12	c1ccc(-c2nn(-c3ccccc3)[n+](-c3ccccc3)n2)cc1
  ?, -26%, nt, ?, ?, nt, nt, nt
13	CN1CC(=O)N(CC(=O)Nc2ccc(OCc3ccccc3)cc2)C1=O
  60%[activator], 23%, -1%, 4%, -15%, nt, nt, nt
14	Cc1ccc(C(=O)COC(=O)CNC(=O)c2cccs2)cc1
  11%, 8%, nt, 6%[46.1 µM], 0%, -54%, -8%, -2.9%
15	N#CC(C(=O)C12CC3CC(CC(C3)C1)C2)c1nc2ccccc2[nH]1 (stereo not drawn)
  ?, -14%, -4%, -28%, 10%, -9%, -20%, -6.0%
16	CCCc1nc2ccccc2c(C(=O)OCC(=O)Nc2c(C)n(C)n(-c3ccccc3)c2=O)c1CC
  0%, -17%, 1%, -31%, -23%, -5%, ?, -4.8%
17	CCOC(=O)C1=C(C)OC(N)=C(C#N)C1c1ccoc1 (stereo not drawn)
  11%, -1%, 21%, -3%, 2%, 5%, -10%, 4.3%
18	c1ccc(CCNc2nc(-c3ccncc3)nc3ccccc23)cc1
  ?, ?, -1%, ?, -6%, -2%, nt, nt
19	CSc1ccc(CCNC(=O)CN2C(=O)CCSc3ccccc32)cc1
  -14%, 9%[46.1 µM], -1%, ?, -19%, -7%, nt, nt
20	Cc1ccc2onc(CNC(=O)N(C)Cc3ccccc3)c2c1
  9%, -3%[46.1 µM], nt, nt, nt, nt, -3%, 0.1%
21	CCCCn1c(O)c(C(C)=NCC2CCCO2)c(=O)[nH]c1=O (stereo not drawn)
  -1%, -7%, -2%, 3%, -3%, -1%, 0%, 0.5%
22	COC(=O)CN(c1ccc(F)cc1)S(=O)(=O)c1ccc2c(c1)OCCO2
  -8%, -9%, -5%, -4%, -13%, -12%, 1%, 8.1%
23	CC(Sc1nnc(NC2CC2)s1)C(=O)Nc1ccc(S(N)(=O)=O)cc1 (stereo not drawn)
  28%, -1%[46.1 µM], -2%, 22%[46.1 µM], -2%, nt, nt, nt
24	Cc1cc(-c2ccccc2)c2nncn2n1
  13%, 2%, 6%, 11%, -6%, -6%, -8%, -2.2%
25	O=c1[nH]cnc(O)c1C(c1ccc([N+](=O)[O-])cc1)c1c(O)nc[nH]c1=O
  0%, nt, 6%, nt, 5%, 3%, nt, nt
26	COc1ccc(OC)c(C(=O)CSc2nc3ccccc3n2CC(=O)NC(C)(C)C)c1
  3%, -14%, 5%, 3%, 0%, 2%, 3%, 6.9%
27	CCOc1ccccc1C1CC(=O)Nc2cc(OC)c(OC)c(OC)c21 (stereo not drawn)
  30%[activator], -17%, 5%, 4%, 9%, -7%, -2%, -0.3%
28	COc1ccccc1Oc1cc(C#N)c(C#N)cc1-n1nnc2ccccc21
  ?, ?, -11%, ?, -17%, -39%, 3%, -3.2%
29	Cc1cc(C)c(NC(=O)/C(=C/c2ccco2)c2ccccc2)c(C)c1
  -19%, -7%, 7%, -6%[46.1 µM], -3%, -10%, ?, -6.0%
30	CC(C)NC(=O)c1onc(CSc2ccc(F)c(F)c2)c1C(=O)O
  -13%, nt, -1%, nt, 2%, 9%, -2%, 2.5%

# Additional results
No.	Structure	2A StopGo	Lassa entry inh	SARS PLpro yeast	MARV entry inh	RE007 growth inh	NS1 function inh	Cruzain noTriton	Cruzain Triton
31	CC1CN(C(=O)N2CCC(C(=O)NCCC3=CCCCC3)CC2)c2cc(Cl)ccc2O1 (stereo not drawn)	-6%	4%[46.1 µM]	nt	nt	nt	nt	?	-4.2%
32	Nc1nnnn1/N=C/C=C/c1ccccc1	33%[activator]	27%	3%	3%	0%	-8%	-20%	-3.9%
33	Cc1ccc(-n2nnnc2CNC(=O)C(C)(C)C)cc1C	-10%	3%[46.1 µM]	nt	nt	nt	nt	7%	5.2%
34	COCCn1c(C)cc(C(=O)CSc2ncnc3sc4c(c23)CCC4)c1C	-6%	-1%	-7%	-4%&3%	17%	10%	20%	-4.3%
35	Cc1ccc(CNC(=O)C2CC(=O)N(C3CCCCCCC3)C2)cc1 (stereo not drawn)	-8%	-6%	-1%	-22%	0%	-11%	?	2.6%
36	Cc1sc2ncnc(SCC(=O)Nc3nc(-c4ccc(F)c(F)c4)cs3)c2c1C	?	-29%	2%	1%[46.1 µM]	5%	8%	nt	nt
37	COc1ccc(-c2nnc(SCC(=O)c3ccc[nH]3)n2-c2ccccc2)cc1	37%[activator]	2%	5%	23%	5%	13%	?	-2.2%
38	CC1(C)NC(=O)N(CC(O)COc2ccccc2[N+](=O)[O-])C1=O (stereo not drawn)	3%	-16%[46.1 µM]	7%	-1%[46.1 µM]	3%	nt	nt	nt
39	CSCCC(NC(=O)c1ccco1)C(=O)OCC(=O)Nc1sccc1C#N (stereo not drawn)	nt	nt	17%	3%	nt	?	3%	-4.6%
40	Cc1nn(-c2ccccc2)c(C)c1/C=N/NC(=O)CSc1nnc(SCc2ccccc2Cl)s1	6%	2.1µM*	?	?	10%	-2%	?	-4.9%
41	CCCCC[C@H](O)/C=C/[C@@H]1[C@@H](C/C=C\CCCC(=O)O)[C@H]2CO[C@@H]1C2	?	-15%	5%	10%	1%[18.4 µM]	18%	?	3.8%&4.5%
42	Cc1cc(C)n2nc(C(=O)N3CCOCC3)nc2n1	-13%	6%	2%	6%	7%	4%	14%	3.1%
43	COc1ccccc1NC(=S)NC(NC(=O)CC(C)C)C(Cl)(Cl)Cl (stereo not drawn)	5%	nt	1%	nt	13%	0%	nt	nt
44	COc1ccc(S(=O)(=O)N2CCCCC2)cc1NC(=O)c1ccc(=O)[nH]c1	10%	-2%	5%	-15%[46.1 µM]	5%	nt	nt	nt
45	COP(=O)(OC)C(NC(=O)Nc1ccccc1)c1ccccc1 (stereo not drawn)	15%	nt	0%	nt	0%	-1%	nt	nt
46	Cc1nnc(NC(=O)c2cccc(S(=O)(=O)N3CCN(C)CC3)c2)s1	-1%	12%	0%	-10%	-23%	nt	nt	nt
47	CCCCC(O)CN1CCC(c2ccccc2)CC1 (stereo not drawn)	17%	?	1%	?	-2%	0%	5%	2.4%
48	COc1ccc(C2(C(=O)NCc3ccco3)CCCC2)cc1OC	-22%	9%	4%	-13%[46.1 µM]	0%	1%	3%	3.0%
49	O=C1NCCCc2nonc21	nt	2%	-1%	9%	-10%	-2%	-10%	-0.4%
50	COc1cccc(CNC(=O)C2CCCN(c3nc4ccccc4o3)C2)c1 (stereo not drawn)	4%	-1%	3%	-3%	14%	-55%	-3%	-2.5%
51	N#Cc1ccccc1S(=O)(=O)N1CCN(C(=O)c2cc3c(s2)CCC3)CC1	22%	-28%[46.1 µM]	6%	8%&8%	41%	nt	nt	nt
52	CSc1nn(-c2ccc(C(=O)OCC(=O)NC(=O)NC(C)C)cc2)c(=S)s1	-6%	-5%	-7%	3%	4%	5%	10%	-13%

# Quoted at random: 2 entries already listed, in no set order.
No.	Structure	2A StopGo	Lassa entry inh	SARS PLpro yeast	MARV entry inh	RE007 growth inh	NS1 function inh	Cruzain noTriton	Cruzain Triton
14	Cc1ccc(C(=O)COC(=O)CNC(=O)c2cccs2)cc1	11%	8%	nt	6%[46.1 µM]	0%	-54%	-8%	-2.9%
39	CSCCC(NC(=O)c1ccco1)C(=O)OCC(=O)Nc1sccc1C#N (stereo not drawn)	nt	nt	17%	3%	nt	?	3%	-4.6%

# As entered above.
# COc1cc2[nH]c(=O)n(Cc3ccccc3Cl)c(=O)c2cc1OC – MARV entry inh = -4%
# c1ccc(CCNc2nc(-c3ccncc3)nc3ccccc23)cc1 – SARS PLpro yeast = -1%
# CCOC(=O)C1=C(C)OC(N)=C(C#N)C1c1ccoc1 (stereo not drawn) – SARS PLpro yeast = 21%
# O=c1[nH]cnc(O)c1C(c1ccc([N+](=O)[O-])cc1)c1c(O)nc[nH]c1=O – RE007 growth inh = 5%
# COc1ccc(OC)c(C(=O)CSc2nc3ccccc3n2CC(=O)NC(C)(C)C)c1 – NS1 function inh = 2%

# Rows are unselected. Share with any hit: about 4.7%.
